Assay outcomes (PubChem BioAssay)
Rce1 inhib: inhibitors of yeast Ras-converting enzyme. yeast membranes, quenched prenylated peptide cleavage fluorescence. 290,000 compounds, 0.27% hits. Q03530. calls only;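 active = fall in fluorescence gain of 50% or more versus controls, with final raw signal at or below 3038400; inconclusive = same 50% fall but final raw signal above 3038400; inactive = fall in fluorescence gain under 50%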;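 also: plate controls were neutral control wells for no effect and wells lacking membranes for full effect; tested at 10 µM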
UUG fidelity: alters start codon recognition fidelity in yeast. S. cerevisiae UUG-firefly luciferase reporter, luminescence/redox ratio. activity score, % at 18.7 µM. 350,000 compounds, 0.13% hits. AID 602363;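 active = replicate mean at a twofold rise or more, about +100% in these data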;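 also: firefly luciferase made from a UUG start codon reports start codon fidelity; reporter light over untreated wells divided by growth signal over untreated wells; some hits fall short of that in this replicate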
HIV Env fusion: blocks HIV Env-driven cell-cell fusion; HeLa-JRFL Env/CEM21 cell fusion, luciferase; inhibition, % at 12.3 µM; 360,000 compounds, 1.1% hits;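 active = mean replicate inhibition score of at least 50 and every replicate individually at or above 50; inconclusive = only one of the two criteria met; inactive = mean below 50 and not all replicates reaching 50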;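 also: 0% = plate neutral controls and 100% = maraviroc near 300 nM; one replicate is shown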
eIF4H inh: inhibitors of RNA binding by human eIF4H; 290,000 compounds, 0.94% hits; inhibition, % at 35 µM; eIF4H fluorescence polarization binding assay; Q15056;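 active = 50% or more with normal probe brightness, or confirmed in later tests; inconclusive = above 50% with abnormal brightness, or retests that disagree; inactive = below 50% or failed in later tests; about a fifth of its hits are not listed in these tables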;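 also: calls also rest on retests at 20 µM and on dose response follow-up; 0% = protein and probe with vehicle and 100% = probe without protein; strong numbers were not always called active; many hits fall short of the cut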
PABP polyA inh: blocks human PABP binding to poly(A) RNA | AID 2014 | fluorescence polarization | inhibition, % at 35 µM | 290,000 compounds, 1% hits | P11940;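 active = 50% or more with normal probe brightness, or confirmed in later tests; inconclusive = above 50% with abnormal brightness, or retests that disagree; inactive = below 50% or failed in later tests; about a fifth of its hits are not listed in these tables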;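 also: calls also rest on retests at 20 µM and on dose response follow-up; controls were probe without protein and protein plus probe with vehicle; some compounds called inactive have numbers as strong as hits; many hits fall short of the cut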
Target sequence (P11940 whole entry, looked up): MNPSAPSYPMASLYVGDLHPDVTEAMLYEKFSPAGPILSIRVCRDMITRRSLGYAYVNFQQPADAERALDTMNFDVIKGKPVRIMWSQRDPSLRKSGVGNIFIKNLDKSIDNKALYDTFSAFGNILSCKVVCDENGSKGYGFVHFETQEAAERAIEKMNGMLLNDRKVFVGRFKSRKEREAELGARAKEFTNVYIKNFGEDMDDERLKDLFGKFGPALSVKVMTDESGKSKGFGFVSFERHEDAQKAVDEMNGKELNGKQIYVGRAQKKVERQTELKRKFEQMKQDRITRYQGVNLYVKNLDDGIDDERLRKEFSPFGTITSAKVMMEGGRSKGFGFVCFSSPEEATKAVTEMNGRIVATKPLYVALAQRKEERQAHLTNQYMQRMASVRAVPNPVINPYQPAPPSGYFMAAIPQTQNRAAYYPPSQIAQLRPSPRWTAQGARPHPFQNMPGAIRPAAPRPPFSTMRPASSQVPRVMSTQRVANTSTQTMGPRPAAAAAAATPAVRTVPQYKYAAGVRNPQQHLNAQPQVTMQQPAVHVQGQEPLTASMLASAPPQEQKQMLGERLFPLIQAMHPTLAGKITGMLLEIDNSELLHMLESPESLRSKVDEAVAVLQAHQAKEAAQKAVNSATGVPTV
CSC inhib: blocks cancer stem cells; AID 2717; cancer stem cell-like cells viability, luminescence; inhibition, % at 7.5 µM; 300,000 compounds, 1.1% hits;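 active = mean at 75% or more and at least half the replicates too; inconclusive = mean and replicates disagree; tested in HMLE shEcad cells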;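 also: 0% = median of negative and 100% = median of positive control wells; the first replicate is given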
MT1-MMP act inh: MT1-MMP (human) activation inhibition; P50281; HT1080 RFP-PRO-GFP cells, GFP/RFP ratio fluorescence, overnight; percent of plate control window, DMSO zero; GFP/RFP ratio change, % at 20 µM; 360,000 compounds, 0.061% hits; AID 651647;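 active = GFP/RFP ratio change of at least 30% with cell ATP level not reduced by more than half and red fluorescence within 50% of control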; also: strong numbers were not always called active
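Test system: HT1080 cells expressing an RFP-PRO-GFP fluorescent reporter construct / Compound dosing: single-point 20 µM compound, 1% DMSO / Schedule: cells overnight before dosing, compound overnight, 37 °C, 5% CO2 / Evaluation: GFP/RFP fluorescence ratio / Control set: DMSO and RFP-L50D-GFP cell wells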
MT1-MMP act inh RFP: second read-out of MT1-MMP act inh, no call of its own (marks repeat the call); RFP signal change, %; measured here: RFP expression control read;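 0 = vehicle wells; hits needed this value within 50% of zero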
* = called active by the depositor; i = inactive; ? = inconclusive; · = not tested or not shown.

Values run as follows: Rce1 inhib	UUG fidelity	HIV Env fusion	eIF4H inh	PABP polyA inh	CSC inhib	MT1-MMP act inh	MT1-MMP act inh RFP
CCc1nnc(NC(=O)CCC(=O)N2CCN(Cc3cc(F)ccc3OC)CC2)s1
→ i	-10	·	6	-7	6	-2	2
COc1ccc(CSc2nncn2N)cc1Br
→ i	-16	·	10	12	-7	1	1
CCc1ccc(OCC2c3cc(OC)c(OC)cc3CCN2C(=S)NCCOC)cc1 (centres undefined)
→ i	-25	9	2	-2	3	-1	-5
CCn1c(=O)n(CC)c2cc([N+](=O)[O-])ccc21
→ i	-10	-5	-9	-7	1	4	5
Cc1c(C(=O)NCCCN2CCCC2=O)oc2ccccc12
→ i	-6	-26	-9	-12	-1	2	6
CCc1ccc(N(CC(=O)Nc2sc3c(c2C(=O)OC)CCCC3)S(C)(=O)=O)cc1
→ i	-13	20	0	-14	2	-14	-15
O=C(NCc1ccco1)C1CCCN1C(=O)Nc1ccc(Cl)cc1 (centres undefined)
→ i	·	16	-2	-4	-8	-5	-3
CCOC(=O)[C@H]1[C@H]2COc3ccc(Cl)cc3[C@@H]2N2C(=O)CNC(=O)[C@@]12C
→ ·	-19	3	·	·	4	-1	5
O=C(CN(C(=O)CCC(=O)Nc1nccs1)C1CCCC1)NCc1ccc2c(c1)OCO2
→ i	·	2	10	14	-1	-3	-2
C=CCOc1ccccc1/C=N/NC(=O)Cc1ccc(C)cc1
→ i	-15	-2	7	12	9	-5	-5
COc1cc(C(CCN2CCOCC2)c2c(OC)cc(OC)c3c(-c4ccccc4)cc(=O)oc23)cc(OC)c1OC (centres undefined)
→ ·	-3	-18	·	·	·	2	-6
CCCc1nnc(SCC(=O)Nc2cccc(Cl)c2Cl)o1
→ i	-10	-29	-12	-3	1	0	3
Cc1ccc(Cc2c(-c3ccccc3)nc3ccc(Br)cn23)cc1
→ ·	-16	13	·	·	·	-9	-6
COc1ccccc1NC(=O)N1CCN(C)CC1
→ i	·	15	0	3	-2	3	7
O=C(Nc1cc(S(=O)(=O)N2CCCC2)ccc1OCC(F)(F)F)c1ccc(F)cc1
→ i	-1	-1	15	-5	-5	-1	0

Following part
Values run as follows: Rce1 inhib	UUG fidelity	HIV Env fusion	eIF4H inh	PABP polyA inh	CSC inhib	MT1-MMP act inh	MT1-MMP act inh RFP
O=C(Nc1ccc(N=Nc2ccccc2)cc1)c1ccc(Cl)cc1Cl
→ i	-18	·	-13	-9	0	3	2
C=CCN1C(=O)C(Cc2ccc(OCC)cc2)SC1=Nc1ccc(C(=O)O)cc1 (centres undefined)
→ i	-7	-156	-9	0	-5	-2	3
Cn1nnnc1SCCNC(=O)C1CCC(=O)N(CCc2cccc(F)c2)C1 (centres undefined)
→ i	-4	-8	-7	-2	2	-4	4
Cc1ccc(NS(=O)(=O)c2ccc3c(c2)n(C)c(=O)n3C)cc1C
→ i	-15	0	37	8	-6	1	-11
CCC(=O)Nc1cc(OC)c(NC(=S)Nc2ccccc2CC)cc1OC
→ ·	-19	26	·	·	·	3	8
COC(=O)COc1cccc(/C=N/NC(=O)CCSc2ccccc2)c1
→ i	·	17	1	12	-11	-3	-4
COc1ccccc1-c1c(NC(=O)c2ccco2)n(-c2ccccc2)nc(C)c1=O
→ i	·	-29	3	4	·	·	·
COC(=O)C1CCCCN1C(=O)c1ccc2oc(C(C)C)nc2c1 (centres undefined)
→ i	-11	4	2	13	16	2	2
O=C(CSc1nnc(Cn2c(=O)sc3ccccc32)n1-c1ccccc1)Nc1nccs1
→ i	-17	-10	-14	-28	-26	3	4
O=C(O)CSc1nnc(-c2ccncc2)n1-c1ccc(Cl)cc1
→ i	·	-16	-4	6	-21	6	5
CN(C)C(CNC(=O)c1ccc(S(=O)(=O)N(C)C)cc1)Cc1ccccc1 (centres undefined)
→ i	·	6	-1	1	2	2	5
CCN(C(=O)COC(=O)c1n[nH]c2ccccc12)C1CCS(=O)(=O)C1 (centres undefined)
→ i	-7	8	-5	2	-13	4	5
CCc1nc2ccc(C(=O)Nc3ccc(NC(C)=O)cc3)cn2c1N(C)CCCc1ccccc1
→ ·	11	-3	·	·	·	1	0
C#CCOCCOCCOCCNc1nc(N2CCN(C(=O)CCCCCCCCCCNC(=O)[C@H](CCCCN)n3cc(CCO)nn3)CC2)nc(N2CCN(C(=O)CCCCCCCCCCNC(=O)[C@H](CCCN=C(N)N)n3cc(C[C@@H](C)CC)nn3)CC2)n1
→ ·	13	·	·	·	135*	9	5
Cc1cccc(-n2c(SCC(N)=O)nnc2-c2ccco2)c1
→ i	-8	10	-2	-4	-10	0	2

Continuation.
Values run as follows: Rce1 inhib	UUG fidelity	HIV Env fusion	eIF4H inh	PABP polyA inh	CSC inhib	MT1-MMP act inh	MT1-MMP act inh RFP
CCCS(=O)(=O)NC(=O)C1(C)CCN(C(=O)c2ccco2)C1 (centres undefined)
→ ·	-11	-16	·	·	·	4	9
CC(C)N1CCN(Cc2cccc(-c3ccco3)c2)CC1CCO (centres undefined)
→ i	·	11	-1	4	43	2	6
CCC(=O)N(Cc1ccco1)c1nc(C(=O)Nc2ccc(Cl)cc2)c(C)s1
→ i	·	-3	?	9	25	-3	-3
CCOc1ccc(N2CC(C(=O)Nc3nnc(Cc4ccc(OC)cc4)s3)CC2=O)cc1 (centres undefined)
→ i	-9	2	-14	3	-4	0	1
Clc1ccccc1CSc1cc2c(nn1)-c1ccccc1CC2
→ i	-22	·	8	-1	56	-12	-9
CCOC(=O)c1nn(-c2ccc(F)cc2)c2c1CC/C2=C/c1ccccc1
→ i	·	4	-17	-7	-14	-1	-2
CCc1nc2cc(NC(=O)C3(C)CCCN(C(C)=O)C3)ccc2o1 (centres undefined)
→ ·	-4	17	·	·	·	4	9
Cc1ccc(C)c(NC(=O)Cc2coc3cc4c(cc23)CCC4)c1
→ i	-16	7	1	4	23	1	4
CC1=NCCN1CCNC(=O)Nc1cc(C)cc(C)c1
→ i	-5	-2	-1	-10	-10	1	0
CC1CCN(c2nc(NCc3ccco3)nc(N)c2[N+](=O)[O-])CC1
→ i	-9	·	15	2	1	-4	-8
CC(C)(C)c1ccc(C(=O)N2CCNCC2)cc1
→ i	-6	-4	-5	3	-9	-10	0
O=C(COC(=O)c1ccccc1OCc1ccc(F)cc1)NCC1CCCO1 (centres undefined)
→ ·	-8	-23	·	·	·	-2	-1
NC(=O)C1CCN(c2nc3c(S(=O)(=O)c4ccccc4)nnn3c3ccccc23)CC1
→ i	-9	2	·	·	-9	5	7
CC1(C(=O)NCc2ccc(Cl)c(Cl)c2)Oc2ccccc2NC1=O (centres undefined)
→ i	·	22	3	-9	-19	0	-1
CC(C)NC(=O)c1ccc(-c2ccc(F)c(F)c2)c2ccoc12
→ ·	20	-1	·	·	·	-2	-9

Next part; the last two above are carried over.
Values run as follows: Rce1 inhib	UUG fidelity	HIV Env fusion	eIF4H inh	PABP polyA inh	CSC inhib	MT1-MMP act inh	MT1-MMP act inh RFP
CC1(C(=O)NCc2ccc(Cl)c(Cl)c2)Oc2ccccc2NC1=O (centres undefined)
→ i	·	22	3	-9	-19	0	-1
CC(C)NC(=O)c1ccc(-c2ccc(F)c(F)c2)c2ccoc12
→ ·	20	-1	·	·	·	-2	-9
COc1ccccc1N1C(=S)NC2CS(=O)(=O)CC21 (centres undefined)
→ i	·	-5	0	1	-15	6	4
O=S1(=O)CC(N2CCC(Cc3ccccc3)CC2)CN1C1CCCC1 (centres undefined)
→ ·	5	-23	·	·	·	3	-1
Cc1ccc(S(=O)(=O)Nc2nnc(C3CCCCC3)s2)cc1
→ ·	-10	-15	-4	13	-6	1	1
O=C(O)C1C2CCC(O2)C1C(=O)NCc1ccccc1Br (centres undefined)
→ i	-5	10	2	-14	-11	-2	-1
CC1CCCC(N2CCN(C(=O)c3ccc(F)cc3)CC2)C1 (centres undefined)
→ i	-13	-19	·	·	·	1	5
CC(C)(C)C(=O)NC1(C(F)(F)F)NC(=O)N(CCc2ccccc2)C1=O (centres undefined)
→ i	24	2	-1	0	-11	5	5
COc1cccc(CN(C(=O)COc2ccc(C)cc2)C2CCS(=O)(=O)C2)c1 (centres undefined)
→ i	-2	5	3	-1	5	-1	2
CN(c1ccccc1)S(=O)(=O)c1cccc(NC(=O)COc2cccc([N+](=O)[O-])c2)c1
→ ·	2	5	·	·	3	1	0
C=C1CCN([C@@H](CC(C)C)C(=O)NCc2ccccc2)S(=O)(=O)c2ccccc21
→ i	-21	23	·	·	-2	-3	-5
COc1cc(/C=C2/NC(=O)N(CC(=O)Nc3cccc(C)c3)C2=O)ccc1OCC(N)=O
→ i	-13	9	-6	6	-7	0	2
COc1ccccc1C1CC(=O)Nc2c1c(=O)n(C)c(=O)n2C (centres undefined)
→ i	10	14	2	6	-7	6	7
Cn1c(=O)c2nc(NCc3ccccc3)cnc2n(C)c1=O
→ ·	-22	·	25	24	-15	2	1
O=[N+]([O-])c1ccc(O)c(/C=N/Nc2ccccc2Cl)c1
→ ·	-11	-97	-4	-1	·	-1	-13
O=C(CNS(=O)(=O)c1ccc2c(c1)OCCCO2)N1CCN(Cc2ccccc2)CC1
→ ·	-2	-4	·	·	·	0	2
O=C(Cc1nc2ccccc2[nH]1)c1ccc(Br)cc1
→ i	·	-24	0	3	21	-2	-6

Following part:
Values run as follows: Rce1 inhib	UUG fidelity	HIV Env fusion	eIF4H inh	PABP polyA inh	CSC inhib	MT1-MMP act inh	MT1-MMP act inh RFP
Cc1cc(C)n(-c2ncc3c(n2)N(CCO)CCOC3=O)n1
→ i	-16	-5	-4	-5	-7	2	0
COc1ccc(OC)c(C2C(C(=O)c3ccc(C)o3)=C(O)C(=O)N2CCN2CCOCC2)c1 (centres undefined)
→ i	·	-10	0	7	-11	-2	-1
Cc1ccc(C)c(S(=O)(=O)N2CCCOC2CNC(=O)C(=O)NCCN2CCOCC2)c1 (centres undefined)
→ i	-21	2	-8	4	10	0	2
CC(=O)Nc1nc(COc2ccc3ccccc3c2)cs1
→ i	-14	-42	-4	-15	25	1	-7
CCC(=O)N1CCc2cc(S(=O)(=O)CCC(=O)N3CCN(c4ccccc4F)CC3)ccc21
→ i	1	12	-8	-1	-18	1	-3
O=C(NCc1cccnc1)C(=O)Nc1cc2c3c(c1)CC(=O)N3CCC2
→ i	-4	·	·	·	4	3	9
CCOC(=O)c1c(CSC(=N)N)n(-c2ccc(C)cc2)c2cc(Br)c(OC(C)=O)cc12
→ i	-12	-41	-5	-22	114*	-43	-29
CC(C)(CO)Nc1nc(N2CCCC2)nc(N2CCCC2)n1
→ i	-1	-24	-3	-12	-12	1	4
CCC1(CC)Cc2ccccc2C(C2=C(O)CC(C)(C)CC2=O)=N1
→ i	0	-32	-8	-2	-15	-4	3
CCOC(=O)CC(=O)c1cc(OC)c(OC)c(OC)c1
→ i	-14	11	5	18	-4	-1	5
Cc1cc(NC(=O)C(C)SCC(=O)Nc2ccccc2C(C)(C)C)no1 (centres undefined)
→ i	-10	27	·	·	·	-1	-3
CCc1ccc(-c2cc(C)no2)cc1S(=O)(=O)Nc1cc(C)ccn1
→ i	-10	10	4	5	-12	-1	-4
CC(C)CCN(C(=S)Nc1cccc(F)c1)C1CCN(C(C)C)CC1
→ i	·	-6	3	0	-13	-1	-4
CNC(=O)COC(=O)/C=C/c1cccc(F)c1
→ i	-6	8	8	-5	3	-4	-1
COC(=O)CNc1nc(Cl)nc(Nc2ccc(Cl)cc2)n1
→ ·	-42	-3	-2	-4	-19	-3	-1
CC(C)c1nnc(NC(=O)CCC(=O)Nc2ccc3cn[nH]c3c2)s1
→ i	·	-1	-2	5	0	-2	6
Cc1cc(C(F)(F)F)nn1Cc1n[nH]c(=S)n1-c1cccc(Cl)c1
→ i	-23	·	-5	-8	-6	-3	2
